Screening data from PubChem.
TRPML1 agonist: human mucolipin-1 channel agonism; Q9GZU1; TRPML1-expressing cells, Ca2+ dye fluorescence, FDSS; host cell line not named in the record; reference of the full effect not given here; activation, % (no concentration beside the values); 410,000 compounds, 0.12% hits; in the data active = activation above about 50%; inconclusive = about 30% to 50%; inactive = below about 30%; note: 0% is about no effect; the text of the record puts the active cut at 80%
Target sequence (Q9GZU1 whole entry, looked up): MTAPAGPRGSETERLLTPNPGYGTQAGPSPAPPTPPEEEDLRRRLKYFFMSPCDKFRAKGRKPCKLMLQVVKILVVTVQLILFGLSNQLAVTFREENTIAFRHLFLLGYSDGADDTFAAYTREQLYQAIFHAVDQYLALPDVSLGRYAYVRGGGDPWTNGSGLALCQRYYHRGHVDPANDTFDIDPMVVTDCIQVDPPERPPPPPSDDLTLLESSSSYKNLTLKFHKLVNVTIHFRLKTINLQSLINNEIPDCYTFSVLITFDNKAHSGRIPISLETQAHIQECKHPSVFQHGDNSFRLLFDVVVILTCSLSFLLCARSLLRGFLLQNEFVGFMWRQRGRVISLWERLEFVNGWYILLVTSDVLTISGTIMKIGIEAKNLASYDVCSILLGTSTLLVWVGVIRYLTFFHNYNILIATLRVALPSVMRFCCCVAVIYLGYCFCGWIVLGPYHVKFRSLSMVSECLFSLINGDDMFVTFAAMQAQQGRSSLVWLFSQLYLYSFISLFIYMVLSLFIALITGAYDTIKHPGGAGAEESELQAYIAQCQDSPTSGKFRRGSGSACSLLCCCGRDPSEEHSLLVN
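Calcium fluorescence on an FDSS kinetic reader gave the read-out. Tet-induced TRPML1-DL cells were plated overnight, dye-loaded (Ca8 with quencher, 45-90 min, room temperature, dark), then read 110 s after compound addition, and again 110 s after 4uM final 54-4 (EC80).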
TRPML1 inh: inhibitors of human TRPML1 channel. TRPML1-inducible cells, Ca2+ dye fluorescence, FDSS; active compounds read low; inhibition of EC80 agonist-evoked calcium signal. Q9GZU1. 390,000 compounds, 0.02% hits. activity change, negative = inhibition, % (test concentration not listed). AID 624415; in the data active means activity change below about -50%; inconclusive means about -30% to -50%; inactive means above about -30%;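 note: stimulus is agonist 54-4 at its EC80 concentration; % is set by controls: 0 for no effect and ±100 for the full control effect; compound concentration not given in the record; the text of the record puts the active cut at -80%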
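TRPML1-DL cells, Tet-induced overnight (~16 h, 37 °C) at 1,500 cells/well, were loaded with Ca8 no-wash dye plus quencher for 45-90 min at room temperature. Compounds were pinned during FDSS kinetic reading; agonist 54-4 at EC80 (4 uM final) then added.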
Six1-Eya2 blk: Six1/Eya2 interaction inhibition; Q15475+O00167; AlphaScreen GST-Six1/His-Eya2 binding, biochemical; active compounds read low; control for the full effect not named in the record; activity change, % (test concentration not listed); 360,000 compounds, 0.56% hits; AID 651725; in the data active = activity change below about -65%; inconclusive = about -30% to -65%; inactive = above about -30%; note: % is set by controls: 0 for no effect and ±100 for the full control effect
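GST-Six1 + His-Eya2 (5X stock: 250/500 nM); Tris pH 8.0, 300 mM NaCl, 0.05% BSA, 0.02% Tween 20; GSH donor/Ni acceptor beads; 1 h 37 °C dark; AlphaScreen readout.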
CtBP-E1A inh: inhibitors of CtBP/E1A interaction | AlphaScreen GST-E1A/His-CtBP binding, 1536-well; active compounds read low; control for the full effect not named in the record | activity change, % (test concentration not listed) | 340,000 compounds, 0.49% hits | AID 651724; in the data active means activity change below about -65%; inconclusive means about -30% to -65%; inactive means above about -30%; note: % is set by controls: 0 for no effect and ±100 for the full control effect
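Homogeneous bead-based format: GST-tagged E1A captured on glutathione donor beads, His-tagged CtBP on nickel acceptor beads; compounds precede bead addition by 2 h at 37 °C.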
D2 PAM: positive allosteric modulators of human D2 dopamine receptor; AID 624464; DiscoveRx D2 beta-arrestin cells, luminescence, 90 min; 100% = 57 uM dopamine signal; potentiation, % (no concentration beside the values); 360,000 compounds, 0.23% hits; active = potentiation of 50% or more; inconclusive = 30% to 50%; inactive = 30% or less;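 note: compound concentration not given in the record; tested on top of an EC20 dose of dopamine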
Target sequence (P14416 whole entry, looked up): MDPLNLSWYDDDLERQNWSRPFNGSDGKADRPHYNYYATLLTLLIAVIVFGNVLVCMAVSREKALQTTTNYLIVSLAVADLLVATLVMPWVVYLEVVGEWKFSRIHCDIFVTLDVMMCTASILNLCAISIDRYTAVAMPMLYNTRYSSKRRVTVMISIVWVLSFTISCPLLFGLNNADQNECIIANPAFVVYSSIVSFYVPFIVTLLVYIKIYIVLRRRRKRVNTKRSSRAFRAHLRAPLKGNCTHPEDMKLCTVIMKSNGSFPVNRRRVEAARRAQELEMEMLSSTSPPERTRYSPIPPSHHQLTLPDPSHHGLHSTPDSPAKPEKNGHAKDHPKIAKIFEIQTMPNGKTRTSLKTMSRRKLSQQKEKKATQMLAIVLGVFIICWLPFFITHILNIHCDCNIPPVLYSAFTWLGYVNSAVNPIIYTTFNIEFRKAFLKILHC
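PathHunter D2 cells, attached overnight at 37 deg C, received compound in DMSO plus dopamine at EC20 (50 nM final) for 90 min at 37 deg C. Beta-arrestin recruitment was read as luminescence after 1 h with detection reagent at ambient temperature.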
TRPV1 potentiator: potentiators of human vanilloid receptor 1 (TRPV1); Q8NER1; TRPV1-expressing cells, Fluo-8 calcium influx, capsaicin EC20 potentiation; host cell line not named in the record; control for the full effect not named in the record; potentiation, % at 8.33 µM; 320,000 compounds, 0.02% hits; active means potentiation above 80%; inconclusive means 30% to 80%; inactive means below 30%; note: 0% is about no effect
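TRPV1-expressing cells were cultured overnight at 35.5C and loaded with Fluo-8 calcium dye for 40 to 90 min at room temperature. After a 10 s baseline, compound was added and calcium influx was read kinetically for 3 min (ex 480/em 520 nm).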
Numbers without * were called inactive; ? = inconclusive; / = not tested or not shown; & = joins results of further samples.

SMILES | TRPML1 agonist | TRPML1 inh | Six1-Eya2 blk | CtBP-E1A inh | D2 PAM | TRPV1 potentiator
Cc1c(Cl)c([N+](=O)[O-])nn1CCCC(=O)NC(C)c1ccccc1 (stereo unspecified) | 0.2 | -7 | 7 | -4 | -17 | -8
O=C(O)c1cc(S(=O)(=O)NC2CCCc3ccccc32)ccc1O (stereo unspecified) | 0.2 | 1 | 5 | 4 | 2 | ?
Cc1nc(C(=O)Nc2ccc(F)cc2)nn1-c1ccc([N+](=O)[O-])cc1 | 0.1 | -14 | 1 | 5 | -3 | 14
O=C(OCc1csc(-c2ccccc2)n1)C1=NN(c2ccccc2)C(=O)CC1 | 0.0 | 6 | 0 | / | 8 | -1
CCOC(=O)N1CCC(NC(=O)CS(=O)(=O)Cc2nc(-c3cccc(Cl)c3)oc2C)CC1 | -0.8 | -8 | 3 | 4 | -9 | -1
COc1ccc(N2CCN(C3CCCN(C(=O)CSC)C3)CC2)cc1 (stereo unspecified) | 0.0 | 13 | 1 | -2 | -2 | -4
Clc1ccccc1OCc1nn[nH]n1 | 3.6 | 15 | 4 | 4 | -2 | -6
CN(C)N1C(N)=C(C#N)C(c2cccs2)C2=C1CCCC2=O (stereo unspecified) | 1.9 | 30 | -9 | / | -4 | 10
O=c1cc(CN2CCN(Cc3ccccc3)CC2)c2ccc(O)c(O)c2o1 | -0.6 | -6 | -20 | 0 | -10 | -16
COc1ccc(CC(=O)NC(C)c2nnc(SCC(=O)c3ccc(OC)cc3)n2C)cc1 (stereo unspecified) | 2.5 | 49 | 2 | 4 | -2 | 3
CN(C)S(=O)(=O)Oc1cccc(C(=O)Nc2cccc(Cl)c2)c1 | -0.4 | 10 | 4 | 7 | -13 | -2
COC(=O)c1ccc(Oc2nc(Nc3ccc(F)cc3)nc(N3CCCC3)n2)cc1 | 0.4 | -6 | -3 | -8 | -8 | 2
Cc1nnc(SCC(=O)NCC2COc3ccccc3O2)s1 (stereo unspecified) | 0.0 | -11 | 9 | 3 | -18 | 0
Cc1nn(C)cc1S(=O)(=O)N1CCN(Cc2ccccc2Cl)CC1 | 0.3 | -4 | -3 | -7 | 3 | -6
O=S(=O)(NC1=NCCC1)c1cccc(NS(=O)(=O)c2ccc(OC(F)(F)F)cc2)c1 | -0.1 | 8 | 13 | -6 | -6 | 9

Some values from the entries so far.
Reading of CN(C)S(=O)(=O)Oc1cccc(C(=O)Nc2cccc(Cl)c2)c1 in TRPV1 potentiator: -2
Reading of O=c1cc(CN2CCN(Cc3ccccc3)CC2)c2ccc(O)c(O)c2o1 in CtBP-E1A inh: 0
Reading of Cc1nn(C)cc1S(=O)(=O)N1CCN(Cc2ccccc2Cl)CC1 in TRPV1 potentiator: -6
Reading of O=C(OCc1csc(-c2ccccc2)n1)C1=NN(c2ccccc2)C(=O)CC1 in D2 PAM: 8
Reading of CN(C)N1C(N)=C(C#N)C(c2cccs2)C2=C1CCCC2=O (stereo unspecified) in TRPML1 inh: 30
Reading of COC(=O)c1ccc(Oc2nc(Nc3ccc(F)cc3)nc(N3CCCC3)n2)cc1 in TRPML1 agonist: 0.4

2 of the compounds above, comma-delimited:
smiles,TRPML1 agonist,TRPML1 inh,Six1-Eya2 blk,CtBP-E1A inh,D2 PAM,TRPV1 potentiator
COc1ccc(N2CCN(C3CCCN(C(=O)CSC)C3)CC2)cc1 (stereo unspecified),0.0,13,1,-2,-2,-4
Clc1ccccc1OCc1nn[nH]n1,3.6,15,4,4,-2,-6

(listing goes on)
SMILES | TRPML1 agonist | TRPML1 inh | Six1-Eya2 blk | CtBP-E1A inh | D2 PAM | TRPV1 potentiator
C=CCNC(=S)NNC(=O)c1ccc(OCC(C)C)cc1 | 0.3 | -10 | 20 | 37 | -20 | -4
Cc1c(OCC(=O)NCCN2CCOCC2)ccc2c3c(c(=O)oc12)CCC3 | -0.3 | -11 | -1 | -3 | -4 | -3
O=C(c1ccc(Cn2cc([N+](=O)[O-])cn2)o1)N1CCCC1 | 0.7 | 8 | 3 | 9 | 0 | 0
CCOc1cc(C2NC(=O)NC(c3ccccc3)=C2C(C)=O)ccc1OC(C)=O (stereo unspecified) | 0.0 | -7 | -2 | / | -4 | -5
CCc1cc(-c2[nH]ncc2-c2ccc3c(c2)OCO3)c(O)cc1O | 0.9 | 60 | -17 | 7 | 9 | -21
COc1ccc(OC)c(C(c2nnnn2C2CCCC2)N2CCN(c3ccccc3F)CC2)c1 (stereo unspecified) | ? | 9 | -14 | -10 | -16 | -20
Cc1ccc(CCNC(=O)C2CC(c3ccc(C(F)(F)F)cc3)=NO2)cc1 (stereo unspecified) | 0.0 | 14 | 6 | / | 2 | -13
CC(C)c1onc(C(=O)N(C)Cc2ccccc2)c1[N+](=O)[O-] | -1.0 | 8 | 5 | 0 | -2 | -25
O=C(CC12CC3CC(CC(C3)C1)C2)Nc1ccccc1N1CCOCC1 | 1.0 | -8 | -6 | 0 | -2 | -12
OC(CNC1CCCC1)COCCOc1ccc(Br)cc1 (stereo unspecified) | 1.0 | 34 | 6 | 3 | -5 | 2
Cc1csc(NC(=O)c2cc(=O)[nH]c3ccccc23)n1 | 1.6 | 9 | -6 | / | -1 | -7
CC(=O)NNc1nc(-c2ccccc2)cs1 | -0.6 | 12 | 0 | 1 | -5 | 18
NC(=O)C1CC(=O)N(c2ccc(OCc3ccccc3Cl)cc2)C1 (stereo unspecified) | 0.5 | 28 | 2 | 1 | -1 | -4
CCOc1cc(C(=O)N2CCN(c3ccccc3)CC2)cc(OCC)c1OCC | 0.3 | -23 | -3 | 1 | -6 | -4
COc1cc2c(cc1OC)CN(c1ccc(C(N)=O)cc1[N+](=O)[O-])CC2 | 1.7 | 20 | -25 | -14 | 0 | 5
c1csc(-c2nnc(NC3CCCCC3)c3ccccc23)c1 | 1.9 | -9 | ? | -1 | -30 | -21
Cc1cc(C(=O)COC(=O)c2ccc(O)cc2)c(C)n1CCc1ccc(F)cc1 | -0.2 | 5 | ? | 6 | -3 | -14
CCOC(=O)N1CCC(N2C(=O)c3ccccc3C2Nc2ccccc2C)CC1 (stereo unspecified) | 0.8 | -2 | -2 | 2 | -5 | 23
Cc1cc(C)c(S(=O)(=O)NC2CC2)c(C)c1 | -0.4 | 15 | 4 | 10 | -5 | -4
CC(=O)Nc1ccc(NC(=O)CSc2nnc(C)c(=O)n2N)cc1 | -0.1 | 14 | -8 | -3 | -7 | 14
Cc1[nH]n(-c2ccccc2)c(=O)c1/C=N/NC(=O)c1ccccc1F | 2.9 | -4 | -28 | ? | -10 | ?
CC1Sc2ccc(S(=O)(=O)CCC(=O)N3CCN(c4ccccc4)CC3)cc2NC1=O (stereo unspecified) | -0.8 | -20 | -2 | -3 | -7 | 12
CC(=O)Nc1ccc(C(=O)NNC(=O)c2ccccc2-n2cccc2)cc1 | -0.6 | -5 | 3 | / | 0 | 21
COc1cc(N2CCCC2)c(OC)cc1C=O | 0.7 | 9 | -5 | / | -9 | 19
O=S(=O)(Cc1ccccc1)N1CCc2ccccc2C1 | 3.4 | -11 | 6 | 13 | -11 | 5
CCOC(=O)c1cc(NC(=O)c2cccnc2)ccn1 | -0.5 | -3 | -30 | -26 | -5 | /
COc1cccc(NC(=O)N2CCCC2C(=O)Nc2ccc3c(c2)OCCO3)c1 (stereo unspecified) | -0.5 | 9 | -11 | -4 | -18 | 13
Cc1onc(-c2ccccc2Cl)c1C(=O)N1CCN(c2ncccn2)CC1 | -0.1 | -11 | 0 | 8 | -17 | 10
COc1ccc(C(=O)OCC(=O)Nc2c(C)cccc2C)c(OC)c1OC | -0.6 | 2 | -1 | 20 | -5 | -2
Cc1ccc(-c2noc(CN(C(=O)CCCCCN3C(=O)c4ccccc4C3=O)C(C)C)n2)cc1 | 2.9 | 15 | -2 | 1 | -10 | 6
COc1cc2c(cc1OC)CN(CC(=O)Nc1ccc(C#N)cc1)CC2 | 1.5 | -6 | -7 | -9 | -55 | -25
Cc1ccccc1C1NC(=S)NC2=C1C(=O)CCC2 (stereo unspecified) | 0.1 | -1 | -6 | 6 | -5 | -2
O=C(NCC1CCCO1)c1ccc(NC(=O)c2cc(F)c(F)cc2Cl)cc1 (stereo unspecified) | 0.4 | -12 | 11 | -7 | -11 | 3
O=C(CCSc1ccc(Br)cc1)Nc1cccnc1 | 0.3 | -10 | 0 | 0 | -15 | -8
Cc1ccc(F)cc1NC(=O)CCc1c(C)nn(-c2ccc(N3CCCCC3)nn2)c1C | 0.6&-0.6 | 4&-7 | 4 | -3 | -4 | 8
CCC(C)n1c(SCC(=O)Nc2cc(C)on2)nc2ccccc2c1=O (stereo unspecified) | 4.2 | -8 | -2 | 4 | 8 | -3
Cc1c(C(=O)N/N=C/c2ccoc2)cccc1[N+](=O)[O-] | 0.8 | 2 | 1 | 5 | -9 | -12
COc1ccc(CN(CC2CCCO2)C(=O)c2cc3sccc3n2C)c(OC)c1 (stereo unspecified) | 1.4 | 13 | -8 | -9 | -6 | -12
Cc1cc(C)nc(N/N=C/c2ccccc2OCc2cccc(Br)c2)n1 | 3.8 | -20 | -3 | 14 | -10 | 6
Cc1ccc(Cn2cc(SCC(=O)Nc3nccs3)c3ccccc32)cc1 | 2.7 | 7 | -7 | -9 | -13 | -27
Cc1ccc(S(=O)(=O)N2CCN(C(=O)c3ccc4nc[nH]c4c3)CC2)cc1 | 0.2 | 4 | -10 | 4 | -5 | 5
CC(C)(C)c1ccc(C(=O)NCC(=O)OCC(=O)N2CCCC2)cc1 | 3.6 | 4 | 4 | -5 | -3 | ?
CCC(c1nnnn1Cc1ccco1)N(CCc1ccccc1)Cc1cc2cccc(C)c2[nH]c1=O (stereo unspecified) | 1.5 | 20 | -15 | -10 | -18 | -8
O=C1[C@@H]2C(Cc3ccc(O)cc3)NC3(C(=O)Nc4ccc(F)cc43)[C@@H]2C(=O)N1c1ccccc1 (stereo partly specified) | -0.8 | -10 | -2 | 2 | -3 | 9
COC(=O)c1ccsc1NC(=O)C1COc2ccccc2O1 (stereo unspecified) | 1.1 | -6 | 23 | 23 | -1 | -1
CCOc1ccc(C(=O)OCC(=O)N(Cc2ccccc2)Cc2ccccc2)cc1OC | 2.4 | -18 | -3 | 0 | -14 | -6
COC(=O)Cn1c2ccc(OC)cc2c2nc3ccccc3nc21 | 0.2 | 6 | 11 | 9 | -4 | 5
O=C(c1cc(S(=O)(=O)N2CCOCC2)ccc1F)N1CCN(Cc2ccccc2)CC1 | -0.4 | -8 | 4 | 10 | -7 | -11
COC1=C(Nc2ccccc2)C(=O)c2ccccc2C1=O | 1.4 | 17 | -83* | -67* | -1 | 3
COc1ccccc1CNC(=O)C1CCC(CNS(=O)(=O)c2ccc(F)cc2)CC1 (stereo unspecified) | 0.6 | 0 | 18 | -18 | 3 | 4
COc1cc(OC)cc(-c2oc(=O)c3cc(OC)c(OC)cc3c2C#CCCCO)c1 | 0.6 | -8 | -1 | -16 | -8 | 0
O=C(Nc1ccc(Br)cc1)Nn1cnnc1 | 0.5 | -9 | -17 | -14 | -14 | -4
Cc1cc(OCc2n[nH]c(=S)n2-c2ccccc2)ccc1Cl | 0.2 | 4 | -3 | 10 | -28 | 9
COc1cc(OC)cc(C(=O)NC(=S)NCc2ccco2)c1 | -0.3 | -3 | -3 | -10 | 3 | -20
